rRNA inh HTS = inhibitors of bacterial rRNA selective over humanized ribosomes | hit rate 1.6% among 350,000 | E. coli WT GFP vs humanized-ribosome RFP mutants, fluorescence, 24 h; stronger effect = lower value; DMSO median 0, no signal -100 | GFP signal change (wild-type ribosome), % (concentration not given with the values);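 active = significant combined selectivity score with lowered wild-type GFP, culture density cut under 30%, mutant RFP and density less affected; inactive = any of these conditions unmet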; note: one replicate is shown; some compounds called inactive have numbers as strong as hits
A1 inh = inhibitors of the anti-apoptotic protein A1, read as caspase activation; MEF A1-2A-BIM cells, Caspase-Glo 3/7 luminescence, 3 h; percent of clofoctol response, vehicle zero; hit rate 0.066% among 330,000; caspase activation, % (concentration not given with the values); AID 2462;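 active = over half of replicate activation scores above 10%, or exactly half above 10 with the replicate mean above 10; inconclusive = replicate mean below 10 yet half the replicates above 10; inactive = over half of replicates below 10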;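 note: wells of about 30 µL received 50 nL stock; many hits fall short of the cut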
T cruzi inh = blocks replication of Trypanosoma cruzi. inhibition, % (no concentration beside the values). T. cruzi beta-gal in NIH3T3, luminescence, 90 h. hit rate 1.4% among 300,000;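 active = mean inhibition across valid replicates above about 55%, limit read from the data; inconclusive = mean below that limit but half or more replicates reach it; inactive = mean below it, under half of replicates reach it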;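 note: signal also drops with host cell toxicity which is not excluded here; 0% = plate median of DMSO wells and 100% = zero luminescence signal; higher percent means less beta-gal luminescence so fewer parasites; stock transfer was 50 nL into about 50 µL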
Vif A3G = HIV-1 Vif–A3G interaction blockers – biochemical, TR-FRET, GST-Vif 1-94, biotin-A3G peptide, dose response retest, primary screen (AID 1117319); one-dose inhibition, %; IC50 in µM for titrated hits; TR-FRET GST-Vif / biotin-A3G peptide binding; higher % means a stronger effect; test concentration not given here; strong numbers were not always called active; hit rate 0.57% among 260,000;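 active = above the screen mean plus three standard deviations and confirmed in dose response; inconclusive = results disagree or hit not tested in dose response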;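 note: Vif residues 1-94 fused to GST binding biotinylated APOBEC3G peptide 110-148; 0% = full assay without inhibitor and 100% = GST in place of GST-Vif; retest series ran down from 100 µM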
Beta apoptosis = beta cell apoptosis inhibition. hit rate 0.8% among 300,000. protection from apoptosis, % (no concentration beside the values). INS-1E cytokine-induced death, ATP luminescence, 48 h; percent of positive-control rescue, neutral wells zero;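 active = all replicates at 75% or more, or half of them and the mean; inconclusive = half reach 75% but not the mean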;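 note: 0% = cytokine-treated negative control wells and 100% = positive control rescue; higher means more ATP so stronger rescue from cytokine killing; wells of about 40 µL received 100 nL stock; the first replicate is given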
AF4-AF9 inh = MLL-AF4/AF9 protein interaction inhibition. P42568. AlphaScreen, biotin-AF4 peptide binding to FLAG-AF9. inhibition, % at 10 µM. hit rate 0.47% among 350,000. AID 651704;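 active = every replicate reaching a set inhibition limit, whatever the replicate mean, cut at about 25% in these data; inconclusive = mean inhibition reaches that limit but some replicates miss it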;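 note: 0% = plate neutral control median and 100% = total signal loss; the record names both 10 and 1 µM as test concentration; the first replicate is given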
Target sequence (P42568 whole entry, looked up): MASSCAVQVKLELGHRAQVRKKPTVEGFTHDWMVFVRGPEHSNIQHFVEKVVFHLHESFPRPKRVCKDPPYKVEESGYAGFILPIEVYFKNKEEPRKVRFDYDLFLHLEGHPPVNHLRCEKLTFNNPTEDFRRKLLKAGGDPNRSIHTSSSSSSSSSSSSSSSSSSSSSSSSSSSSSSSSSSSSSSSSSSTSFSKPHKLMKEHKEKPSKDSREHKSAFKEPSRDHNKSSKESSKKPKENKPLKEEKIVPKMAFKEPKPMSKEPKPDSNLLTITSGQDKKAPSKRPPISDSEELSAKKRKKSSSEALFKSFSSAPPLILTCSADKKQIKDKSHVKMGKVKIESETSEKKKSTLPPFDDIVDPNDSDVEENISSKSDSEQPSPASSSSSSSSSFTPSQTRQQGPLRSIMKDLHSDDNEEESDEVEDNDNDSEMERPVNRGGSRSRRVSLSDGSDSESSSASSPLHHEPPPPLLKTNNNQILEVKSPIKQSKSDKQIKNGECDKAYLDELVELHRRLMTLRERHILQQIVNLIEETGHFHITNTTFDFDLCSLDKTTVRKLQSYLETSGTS
RanGTP-Imp inh = disruptors of Ran-importin-beta complex formation – biochemical, FRET, CFP-Ran, YFP-importin-beta, homogeneous, primary screen | cell-free CFP-Ran/YFP-importin-beta FRET ratio | inhibition, % (test concentration not listed) | hit rate 1.1% among 300,000;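 active = most replicates above 15%; inconclusive = exactly half above 15%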;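 note: 0% = DMSO wells and 100% = Ran loaded with GDP instead of GTP; wells of about 40 µL received 100 nL stock; the first replicate is given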
Calb FLC = affects C. albicans growth with fluconazole. growth inhibition, % (test concentration not listed). hit rate 0.57% among 300,000. C. albicans CaCi-2 (fluconazole-resistant clinical isolate) + fluconazole, Alamar Blue growth, 48 h;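 active = most replicates above 75%; inconclusive = exactly half above 75%; inactive = most below 75%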;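 note: all wells also contain fluconazole at 8 µg/ml as a sub-toxic cotreatment; 0% = median of DMSO wells and 100% = median of geldanamycin control wells; wells of about 8 µL received 7.5 nL stock; the first replicate is given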
rRNA inh HTS OD600 = recorded beside rRNA inh HTS, whose call it bears; OD600 change, %; measured here: OD600 growth;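 optical density of the mix in the first replicate; 0 = DMSO median and -100 = no signal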
rRNA inh HTS RFP = also measured in rRNA inh HTS; calls as there; RFP signal change, %; measured here: RFP humanized mutant strains;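 first replicate; 0 = DMSO median and -100 = no signal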
An asterisk follows results filed as active; ? = inconclusive; . = no result given; & = joins results of further samples.

SMILES	rRNA inh HTS	rRNA inh HTS OD600	rRNA inh HTS RFP	A1 inh	T cruzi inh	Vif A3G	Beta apoptosis	AF4-AF9 inh	RanGTP-Imp inh	Calb FLC
Cc1ccn2c(=O)nc(SCC(=O)N3CCC(Cc4ccccc4)CC3)nc2c1	-4	-9	3.1	-0.4	22	-5%	.	1.0	-7.2	22
COc1ccc(CCNC(=O)CSc2nc(-c3ccc(OC)c(OC)c3)ccc2C#N)cc1	.	.	.	3.4	7	25%	-31	.	3.9	19
Cc1cc(C(=O)CSc2cccc[n+]2[O-])c(C)n1-c1ccc(Br)cc1	.	.	.	0.1	2	-4%	0	.	-3.7	49
CC(C(=O)Nc1ccc(C#N)cc1)N(C)Cc1cccs1 (stereo unspecified)	-5	-6	3.5	0.1	-9	.	-5	-2.9	-1.7	5
CCOC(=O)c1ccc2[nH]c3c(c2c1)CCCCC3=O	9	11	0.6	-0.7	9	14%	2	-4.3	2.0	-11
O=C(CNCc1cccs1)NC12CC3CC(CC(C3)C1)C2	-28	-23	-0.2	0.4	-6	.	-10	-0.4	-0.9	-19
COc1ccccc1NC(=O)N1CCCC1C(=O)NCC1CCCO1 (stereo unspecified)	1	8	-2.7	0.0	-14	-6%	1	2.6	-4.7	-18
CC(SCc1ccccc1)C(=O)Nc1ccc2c(c1)OCO2 (stereo unspecified)	.	.	.	-0.5	6	-1%	.	.	-1.9	-19
Cc1nc(SCC(=O)c2ccccc2)c([N+](=O)[O-])[nH]1	.	.	.	-0.6	-5	3%	0	.	-2.0	53
O=C(OC(C(=O)NC1CCCC1)c1ccc(F)cc1)c1ccno1 (stereo unspecified)	.	.	.	1.6	-2	0%	-5	.	1.8	-7
S=C(NCc1ccc(Cl)c(Cl)c1)Nc1ccc2c(c1)OCO2	1	-1	1.1	-0.7	-12	.	-9	1.8	0.6	?
CCOC(=O)C(Cc1c(F)cccc1Cl)c1ccno1 (stereo unspecified)	5	1	0.0	-0.9	-17	.	-1	-0.3	1.8	-5
CCc1cccc(OCC(=O)Nc2ccccc2N2CCCC2)c1	-25	-42	0.2	-0.1	26	27%	5	-4.3	.	-5
Cc1ccc(OCc2cc(C(=O)N3CCN(C4CCCC4)CC3)no2)cc1C	5	-6	7.1	-0.7	20	.	-2	1.0	0.0	-6
COc1ccc(CCNC(=O)CCNC(=O)c2ccc(Cl)cc2)cc1OC	6	3	-0.5	-1.0	4	8%	-1	-4.7	1.7	0
CC(=O)OCC1OC(n2cc(F)c(=O)[nH]c2=O)C(OC(C)=O)C1OC(C)=O (stereo unspecified)	12	-2	-1.7	0.1	-80	.	7	1.2	2.3	-2
CC(C)(C)NC(=O)c1ccc(Cn2cc(C(F)(F)F)ccc2=O)cc1	11	13	1.9	0.3	-10	-4%	-2	-0.1	0.3	-5
C/C(=C\c1ccccc1)C(=O)Nc1ccc(Cl)cn1	-15	-34	-9.3	-2.9	0	-12%	1	5.1	-4.5	-71
O=C(C1=C(Nc2ccccc2)c2ccccc2S(=O)(=O)N1)c1ccccc1	-19*	-0.5*	5.9*	0.2	-3	16%	-9	10	-8.6	35
CC(C)NC(=O)Cc1ccc(Br)cc1	.	.	.	0.2	-9	-4%	0	.	-2.0	-4
N=c1c(C(=O)NCc2ccco2)cc2c(=O)n3ccccc3nc2n1CC1CCCO1 (stereo unspecified)	.	.	.	0.1	4	27%	-1	.	130*	1
CN(C)c1cccc2c1c(NC(=O)Nc1ccc(F)cc1F)nn2C	11	6	-0.7	-0.1	12	7%	0	-2.8	4.9	9
Cc1ccccc1N1C(=O)Cc2ccccc2C1=O	4	13	0.9	-0.3	4	.	2	0.1	-0.4	4
CCOc1ccccc1NC(=O)Cn1nnc(C(=O)NCc2ccco2)c1N	.	.	.	0.7	5	4%	7	.	-1.0	1
Cn1cnnc1SCC(=O)c1cc2ccccc2oc1=O	6	4	6.9	-0.6	-14	24%	-1	-106	18*	-2
CC(=O)N1c2ccc(S(=O)(=O)N3CCC(C(=O)N4CCCC(C)C4)CC3)cc2CC1C (stereo unspecified)	13	4	0.2	1.3	5	.	16	-1.1	7.8	-4
COc1cc(C(c2nnnn2C2CCCC2)N2CCc3ccccc3C2)ccc1O (stereo unspecified)	.	.	.	0.1	6	2%&7%	-2	.	3.1	37
COc1cc(/C=C2\Oc3cc(O)ccc3C2=O)ccc1O	.	.	.	-0.3	-14	.	.	-0.8	2.4	0
Cc1cc(N2C(=O)c3ccccc3C2=O)n(C)n1	20	11	1.4	-0.1	-11	-16%	-2	-2.4	3.0	-5
S=c1nc(-c2sccc2OCc2ccc(Cl)cc2Cl)[nH][nH]1	-44	-66	-2.0	0.0	3	1%	-5	-5.1	5.1	12
O=C(CCc1ccccc1)NNC(=S)NC(=O)c1ccc(Cl)cc1	.	.	.	0.1	-47	-4%	.	.	-3.2	80*
O=C(Nc1cccc(-c2nnn(CC(=O)N3CCc4ccccc4C3)n2)c1)C1CCC1	-10	-21	10	0.1	8	-4%	.	-2.6	-1.6	-7
Cc1nc(NCCCO)c(C#N)c2c1COC(C)(C)C2	.	.	.	-0.3	5	28%	-2	.	-1.5	25
CCCOc1ccccc1N/C(=N\S(=O)(=O)c1ccc(C)cc1)Nc1nc(C)cc(C)n1	.	.	.	0.0	20	-7%	3	.	0.6	-2
CC1CCCN(C(=O)Nc2ccc(Br)cc2Cl)C1 (stereo unspecified)	1	-12	-1.4	0.0	-4	-1%	2	-2.6	?	-18
CCC1CCCCN1S(=O)(=O)c1ccc(S(=O)(=O)N2CCN(S(=O)(=O)CC)CC2)cc1 (stereo unspecified)	.	.	.	0.0	12	4%	-1	.	2.0	7
N#Cc1c(NCc2ccccc2)ccnc1Cl	6	2	0.2	0.2	-1	.	-3	-4.0	-0.7	-5
CN(C)C(=O)c1ccc(NC(=O)COC(=O)/C=C/c2cccs2)cc1	-3	-1	-1.2	0.6	4	7%	1	-12	?	1
O=[N+]([O-])c1cccc2ccc(/C=C/c3ccc(C(F)(F)F)cc3)nc12	14	-9	0.9	-0.3	38	.	8	1.8	?	17
O=C1C2CCCN2C(c2cccs2)N1c1ccc(Cl)cc1 (stereo unspecified)	.	.	.	-0.4	6	-2%	1	.	-1.1	-16
C=CCC[C@@H](Cc1ccc(F)cc1)C(=O)OC[C@H](C)NC(=O)[C@H](CC=C)CC(=O)N(CCO)Cc1ccccc1	-26	-39	40	0.0	.	.	3	-3.1	.	.
CC(C)c1nc(C(=O)N2CCc3c([nH]c4ccccc34)C2c2ccccn2)cs1 (stereo unspecified)	-30	-55	43	-0.1	6	-3%	.	12	4.3	33
CCCn1c(CN(C)Cc2ccccc2)nc2c1c(=O)n(C)c(=O)n2C	.	.	.	0.5	13	0%	59	.	?	-14
CCCOc1cccc(-c2cc(-c3n[nH]c(=S)n3CC)c3ccccc3n2)c1	-15	-1	5.4	.	?	5%	.	5.4	4.3	4
Cn1c(=O)c2ccccc2n(CC(=O)Nc2ccc3c(c2)OCCO3)c1=O	2	11	-2.1	0.3	-19	1%	5	-2.2	-3.5	0
O=C(CNC(=O)c1ccc(Cl)cc1Cl)Nc1ccc(F)cc1	-5	-10	-2.9	0.6	-2	30%	-1	?	-3.8	10
COc1ccc(-c2noc(CCC(=O)NCc3cccnc3)n2)cc1OC	.	.	.	-0.7	3	-6%	-3	.	-6.3	-5
CCOc1cccc(NC(=O)/C(C#N)=C\c2cccnc2)c1	3	12	1.9	0.2	-14	-6%	0	0.1	8.5	8
Cc1ccccc1CS(=O)(=O)CCC(=O)NCc1ccc(F)cc1Cl	2	10	-3.1	0.6	1	.	-5	-12	1.2	1
Cc1cc(OC(C)C(=O)NCC2CCC(C(=O)O)CC2)c2c(C)c(C)c(=O)oc2c1 (stereo unspecified)	.	.	.	0.5	-14	.	-5	-1.9	1.2	-2

Carrying on.
SMILES	rRNA inh HTS	rRNA inh HTS OD600	rRNA inh HTS RFP	A1 inh	T cruzi inh	Vif A3G	Beta apoptosis	AF4-AF9 inh	RanGTP-Imp inh	Calb FLC
Cc1cccc(CSc2ncnc3c2cnn3Cc2ccccc2)c1	.	.	.	-0.7	42	1%	4	.	-1.8	-17
Cc1c(C)n(CCc2ccccc2)c2ncnc(NN)c12	-9	-23	0.5	0.4	5	-3%	1	2.1	4.7	-5
CC1C(=O)Nc2ccc(S(=O)(=O)Nc3ccccc3Br)cc2NC1=O (stereo unspecified)	-2	6	-3.2	0.1	-16	.	-2	-3.0	-0.6	-1
CCC(C)(C)C1CCC(=NNC(=O)c2ccoc2C)CC1 (stereo unspecified)	.	.	.	0.0	-7	4%	-1	.	0.3	0
Cn1c(SCC(=O)NC(=O)NCc2ccccc2)nnc1C(F)(F)F	9	17	-1.1	0.3	.	.	2	-3.9	.	.
COc1cc(Cl)cc(CN2CCC(CCC(=O)NC3CC3)CC2)c1OC	10	9	2.8	-0.2	2	.	-2	-5.8	-4.8	-1
O=C(NCCc1ccccn1)c1n[nH]c(=O)c2ccccc12	.	.	.	2.2	-25	-5%	0	.	-0.6	2
COc1cc2c(cc1OC)C(Nc1ccc(S(N)(=O)=O)cc1)=NC(C)(C)C2	2	6	-1.8	-0.4	4	-7%	-3	-16	1.3	-4
Cc1ccnc(NC(=O)CCC(=O)N(CC(=O)NCc2ccccc2)Cc2ccccc2)c1	0	1	9.2	-0.1	7	.	-5	-1.0	-4.2	-17
COc1c(Cl)cc(Cl)cc1/C=N/n1cnnc1	.	.	.	0.9	-7	25%	2	.	1.3	4
CSc1ccccc1NC(=O)c1ccc(N2CC3CC(C2)c2cccc(=O)n2C3)c(NC(=O)c2cccnc2)c1 (stereo unspecified)	7	7	3.6	3.2	11	.	6	3.0	-1.4	0
CCc1c(C)nc2ncnn2c1N1CCN(S(=O)(=O)c2ccc(OC)cc2)CC1	3	2	-0.6	0.1	-48	-30%	35	-1.3	-2.5	4
C/C(=N\Nc1ccc(Cl)c(C(=O)O)c1)c1ccccn1	16	12	4.5	0.1	-14	-6%	-4	-1.3	3.9	-4
NC(=O)c1ccc(Oc2ccc3ccc(=O)oc3c2)c([N+](=O)[O-])c1	12	7	0.2	0.1	4	4%	-3	-0.9	?	8
COc1cccc(O)c1CN1CCC(Oc2ccc(C(=O)NCc3ccccn3)cc2)CC1	3	1	-1.9	-0.9	5	.	3	1.6	-1.4	3
Cc1csc(=O)n1CCC(=O)OCC(=O)N(CC(C)C)c1c(N)n(Cc2ccccc2)c(=O)[nH]c1=O	1	-2	3.3	-0.4	-1	.	-1	-2.9	-0.6	7
CCOC(=O)C1CCCN(C(=O)c2cccc(S(=O)(=O)N(C)c3c(C)n(C)n(-c4ccccc4)c3=O)c2)C1 (stereo unspecified)	6	3	-0.3	-0.1	-1	-1%	1	14	6.1	-8
COc1ccc(S(=O)(=O)N2CCCOC2CNC(=O)C(=O)NCc2ccco2)cc1C (stereo unspecified)	5	7	0.4	1.3	9	-11%	-11	0.2	-1.3	2

High-throughput results deposited in PubChem BioAssay by several laboratories.

Some of the compounds tested. The share of hits here may be higher or lower than overall.
